Bioassay records as filed in PubChem.
Vaccinia Venus: qHTS for Stage-Specific Inhibitors of Vaccinia Orthopoxvirus: Venus Reporter Primary qHTS | Vaccinia virus Venus reporter expression, fluorescence | Potency, µM (highest dose often 36.5 µM), without a hit: at the top dose activity change, negative = inhibition, hits mostly inhibitors | 330,000 compounds, 0.46% hits | AID 720580, 2013; active means well fitted inhibition curve with a large enough effect; inconclusive means small, poorly fitted or top-dose-only effect; inactive means no such curve, though single readings can be large or run the other way; tested in A549 cells; also: nearly all actives have a fitted effect of over 30% in size; inactives centre near -10
Vaccinia mCherry: qHTS for Stage-Specific Inhibitors of Vaccinia Orthopoxvirus: mCherry Reporter Primary qHTS; Vaccinia virus mCherry reporter infection, fluorescence; about a quarter of the inactives have no number; Potency, µM (highest dose often 36.5 µM), without a hit: top-dose activity change, negative = inhibition, actives largely listed as inhibitors; 310,000 compounds, 0.63% hits; AID 720579, 2013; active = well fitted inhibition curve with a large enough effect; inconclusive = small, poorly fitted or top-dose-only effect; inactive = no such curve, though single readings can be large or run the other way; tested in A549 cells; also: nearly all actives have a fitted effect of over 35% in size; inactives centre near -10
Active calls of the source: *; i = inactive; ? = inconclusive; . = no result given; & = joins results of further samples; [ ] = another dose, or the depositor's remark. % is scaled to controls: 0 for no effect and ±100 for the full control effect; potency is read from the fitted curve at half-maximal effect.

item	Structure	Vaccinia Venus	Vaccinia mCherry
1	O=S(=O)([N-]c1nc2ccccc2nc1-n1cc[n+](Cc2ccccc2)c1)c1ccccc1	-8%	i
2	COc1cc(/C=N/NC(=O)CN2CCCCC2)ccc1OCc1ccccc1	?	-23%
3	CSc1cccc(NC(=O)CCC(=O)O)c1	2%	-14%
4	CCn1c(CNC(=O)c2ccc(OC)cc2)nnc1SC	-17%	i
5	CCCN(N=Nc1cccc([N+](=O)[O-])c1)c1cccc([N+](=O)[O-])c1	-11%	-14%
6	O=C(N/C(=C/c1ccccc1F)C(=O)N1CCCCC1)c1ccccc1	-8%	-12%
7	CCn1c(SCC(=O)Nc2ccc(OC)c(OC)c2)nnc1-c1c[nH]c2ccccc12	-7%	-2%
8	CCCOc1ccc(Cc2nc(N)nc(N)n2)cc1	-15%	-3%
9	O=C(NCC(=O)N(Cc1ccco1)C(C(=O)NC1CCCCC1)c1cccnc1)c1cccs1 (stereo not given)	2%	-13%
10	Cc1cccc(C(=O)NNC(=O)c2c(-c3ccccc3Cl)noc2C)c1O	-4%	?
11	ONC=Nc1cccc2nonc12	-8%	.
12	O=C(/C=C/c1ccco1)Nc1nnc(-c2ccco2)s1	?	?
13	O=C(CCC1N=C2c3ccccc3N=C(SCC(=O)Nc3cccc(Cl)c3)N2C1=O)NCc1ccco1 (stereo not given)	-10%	-4%
14	CCC(C)NC(=O)c1c2c(nc3ccccc13)C(=O)N(C1CCCCC1)C2 (stereo not given)	-7%	-14%
15	CC(=O)Nc1ccc(-c2cn3cc(C)ccc3n2)cc1	-23%	-6%
16	COc1ccc(S(=O)(=O)N2CCC(C(=O)NCc3ccncc3)CC2)cc1C	-3%	?
17	Cc1cccc(C)c1NC(=O)NC1(C(=O)NCc2ccncc2)CCCCC1	-6%	-26%
18	O=C(NCc1nnnn1-c1ccc(F)cc1)C(=O)c1c[nH]c2ccccc12	-8%	i
19	Nc1ccn([C@@H]2O[C@H](C(=O)NCC(F)(F)F)[C@@H](O)[C@H]2O)c(=O)n1	-4%	21%
20	C[C@H](NC(=O)C1CCN(S(=O)(=O)c2ccccc2)CC1)C(=O)NCc1ccncc1	-3%	-10%
21	O=C(Cn1c(=O)n(CC(=O)NCc2ccccc2)c2ccccc21)NCc1ccccc1	-15%	.
22	NNC(=O)Nc1cccc(C(F)(F)F)c1	0%	-15%
23	Cc1ccc(-n2nnc(-c3nsc(NC(=O)c4ccc(C)c(C)c4)n3)c2C)cc1	-21%	i
24	Cc1c(C(=O)OCC(=O)Nc2ccc(N3CCOCC3)cc2)oc2ccccc12	-2%	-5%
25	O=C(N/N=C/c1ccncc1)c1ccc(NC(=O)c2cccc(Cl)c2)cc1	-13%	i
26	Cc1cccc(C)c1NC(=O)c1sc(-n2nc(C)c(Cc3ccccc3)c2C)nc1C	-19%	-21%
27	CC(C)S(=O)(=O)c1oc(-c2ccc(F)cc2)nc1S(=O)(=O)c1ccccc1	-12%[7.34 µM]	-19%[7.34 µM]
28	COc1ccc(-c2cc(C(=O)N3CCN(c4ccccc4OC)CC3)c3cc(C(C)C)ccc3n2)cc1	?	?
29	COc1cccc(CNc2ncnc3cc(OC)c(OC)cc23)c1	?	.
30	CC1(C)COC(/C=C/c2ccc([N+](=O)[O-])cc2)=N1	?	?

Of the compounds above, two contain a CF3 group:
item	Structure	Vaccinia Venus	Vaccinia mCherry
19	Nc1ccn([C@@H]2O[C@H](C(=O)NCC(F)(F)F)[C@@H](O)[C@H]2O)c(=O)n1	-4%	21%
22	NNC(=O)Nc1cccc(C(F)(F)F)c1	0%	-15%

Rewritten in transposed form: part of the list above.
29. COc1cccc(CNc2ncnc3cc(OC)c(OC)cc23)c1
11. ONC=Nc1cccc2nonc12
compound no.	29	11
Vaccinia Venus	?	-8%
Vaccinia mCherry	.	.

More structures
item	Structure	Vaccinia Venus	Vaccinia mCherry
31	O=C(NN1CCOCC1)c1cc(-c2ccccc2)nc2ccccc12	-3%	-13%
32	CN(C)c1ccc(/C=N/NC(=O)c2ccco2)cc1	-4%	-9%
33	COc1ccc(S(=O)(=O)Nc2ccc3c(c2)OCCO3)cc1OC	7%	-16%
34	COCCCNCC(O)COc1ccccc1F (stereo not given)	-11%	i
35	Fc1ccc(C(NCCc2ccccc2)c2nnc(-c3ccccc3Cl)o2)cc1 (stereo not given)	-3%	-10%
36	COCn1c(-c2ccc(OC)cc2)nc2ccccc21	-22%	i
37	CN(C#N)c1nc(Cl)nc(Nc2cccc(Cl)c2)n1	-3%	-4%
38	COc1ccc(CNC(=O)Nc2cccs2)cc1OC	-10%	-15%[1.46 µM]
39	O=C(CC1N=C2c3ccccc3N=C(SCC(=O)Nc3ccc(F)cc3)N2C1=O)NCc1ccc2c(c1)OCO2 (stereo not given)	4%	1%
40	COc1ccc(C(=O)Nc2ccc(C3=NNC(=O)CC3C)cc2NC(=O)c2ccc(OC)cc2)cc1 (stereo not given)	-14%	?
41	COc1cccc(C(C)(O)c2nc(-c3cc(F)cc(F)c3)cs2)c1 (stereo not given)	-5%	i
42	Cc1c(Br)c([N+](=O)[O-])nn1CC(=O)NC1CCCCCC1	-10%	-17%
43	O=C(Nc1cccc2c1CCCC2)c1ccccc1Br	-7%	-15%
44	O=C(CSc1nc(-c2ccccc2)ns1)NCC1CCCO1 (stereo not given)	-21%	i
45	COc1ccccc1CNC(=O)C(C)n1cccc1C(=O)c1ccccc1 (stereo not given)	-14%	-12%
46	CCOc1ccc(NC(=O)c2ccccc2NS(=O)(=O)c2ccc(F)cc2)c([N+](=O)[O-])c1	-22%	?
47	CO/N=C/c1ccc(Sc2ccccc2)c([N+](=O)[O-])c1	-8%	.
48	O=C(NCc1ccccc1)C1=C[C@H](C2CCCCC2)C[C@H](OCc2ccc(CO)cc2)O1	?	i
49	COc1ccc(NC(=O)Cn2c(=O)n(CC(=O)NCCc3ccccc3)c(=O)c3ccccc32)cc1	5%	-12%
50	CCOC(=O)c1c(NC(=O)CCCOc2ccccc2C)sc2c1CCC(C)C2 (stereo not given)	6%	-3%
51	O=C(NCCc1c[nH]c2ccccc12)C(=O)NCC(c1cccnc1)N1CCN(c2ccccc2)CC1 (stereo not given)	?	16µM*
52	O=S(=O)(c1ccc(Cl)cc1)c1nc(-c2ccco2)oc1SCc1ccccc1F	-12%	i
53	CCC(Oc1ccccc1)C(=O)N1CCN(C(=O)C(CC)Oc2ccccc2)CC1 (stereo not given)	-8%	-11%
54	Nc1cccc2[nH]c(C(F)(F)F)nc12	74%[activator]	9%
55	Cc1nn(Cc2ccc(F)cc2)c(C)c1NC(=O)c1cccnc1Cl	-3%	-6%
56	O=C(CSc1nc2c(sc3ccccc32)c(=O)n1CCCC(=O)NC1CCCC1)Nc1ccc(F)cc1	-15%	-27%
57	CC(=O)NCC1=C(c2cccc3ccccc23)C[C@@H]2CC[C@H]1N2Cc1ccco1	-9%	i
58	COc1ccc(-c2nc3ccccc3o2)cc1NC(=O)Cc1ccc(Cl)cc1	?	?
59	CC12Cc3ccc4ccccc4c3C=C1C[N+](C)(C)C2 (stereo not given)	2%	.
60	C(=NN1CCCCCC1)c1ccc2c(c1)OCO2	-6%	-17%
61	O=C(Nc1nc2ccc(Cl)cc2s1)[C@@H]1CCCN1C(=O)c1cccs1	-16%	-8%
62	Cc1ccc([C@@H]2CC(=O)[C@@H]3CN(S(=O)(=O)c4ccc(C)cc4)[C@H](c4ccc(Cl)cc4)C[C@@H]3N2S(=O)(=O)c2ccc(Cl)cc2)cc1	-10%	i
63	O=C1C(=Cc2ccccc2Cl)CCc2ccccc21	-4%	-4%
64	Cn1c(SCC(=O)NC2CCCCC2)nnc1-c1ccc(N)cc1	13%	i
65	COc1ccc(NC(=O)COC(=O)C2COc3ccccc3O2)cc1OC (stereo not given)	-4%	-4%
66	CC(C)C(NS(=O)(=O)c1c(Cl)cccc1Cl)C(=O)OCC(=O)c1c[nH]c2ccccc12 (stereo not given)	?	?
67	CCOC(=O)N1CCN(C(=O)CSc2ccc(Cl)cc2)CC1	-9%	.
68	COC(=O)[C@]1(C)N[C@H](c2ccc(-c3ccc(F)cc3)cc2)[C@@H]2C(=O)N(C)C(=O)[C@@H]21	-23%	?
69	N#Cc1cc(C(=O)c2cc(F)ccc2O)cn(-c2nccs2)c1=O	2%	i
70	CN(C)c1ccc(/C=N/NC(=O)c2ccnn2C)cc1	-13%	i
71	O=c1cc(-c2ccccc2)oc2cc(O)ccc12	5%	30%[activator]
72	O=S(=O)(Cc1ccc(Cl)cc1)N1CCN(c2ncccn2)CC1	-12%	-4%
73	CC(CC(=O)Nc1ccc(F)c([N+](=O)[O-])c1)c1ccccc1 (stereo not given)	-16%	-6%
74	O=C(O)c1ccc(N/N=C/c2ccc(-c3ccccc3Cl)o2)cc1	-12%	?
75	O=C(CCC1CCCN(C(=O)C2=CCCCC2)C1)N1CCN(c2ccccn2)CC1 (stereo not given)	-12%	-2%
76	Cc1cc(NC(=O)CCCC(=O)Nc2ccc(F)cc2)no1	-4%	-15%
77	NC(=O)C1(Nc2ccc(-c3ccc(Br)cc3)cc2)CCCC1	-18%	-29%
78	CCCN(CCC)S(=O)(=O)c1cccc(C(=O)N=c2sccn2C)c1	-20%	-25%
79	COC(=O)c1c(NC(=O)c2ccco2)sc(C(=O)Nc2ccc(F)cc2)c1C	-6%	-10%
80	COc1ccccc1N1CCN(CCn2c(=O)[nH]c3c([nH]c4ccccc43)c2=O)CC1	-18%&-14%	-17%&-2%
81	Cc1ccc(C)c(N2CCN(S(=O)(=O)c3c(C)[nH]c(C)c3C(=O)N3CCCC3)CC2)c1	-23%	?
82	COCCn1nnnc1C(c1ccc(OC)c(OC)c1)N1CCN(C(=O)c2ccco2)CC1 (stereo not given)	6%	17%
83	O=C(COc1ccc(C(=S)N2CCOCC2)cc1)Nc1ccccc1C(F)(F)F	-13%	-19%
84	O=C1NC(c2ccccn2)Nc2sc3c(c21)CCC3 (stereo not given)	-19%	-4%
85	COCCCNC(=O)c1ccc([N+](=O)[O-])cc1	-16%	i
86	COc1ccc(CNC(=O)CCNC(=O)c2ccco2)cc1OC	-12%	-8%
87	CC(=O)NCCNC(=O)C1(C)Cc2c(-c3cccc(C(F)(F)F)c3)ccnc2O1 (stereo not given)	-5%	-13%
88	O=C(Cn1nc(-c2cccc([N+](=O)[O-])c2)c2ccccc2c1=O)NCC1CCCO1 (stereo not given)	-6%	-8%
89	CCOc1ccccc1CNS(=O)(=O)c1ccc2c(c1)oc(=O)n2C	-5%	3%
90	Cc1ccc(OCC(=O)Nc2ccc(S(=O)(=O)N(Cc3ccccc3)c3ccccc3)cc2)cc1	?	-13%

Some of the entries above in another layout:
[58] COc1ccc(-c2nc3ccccc3o2)cc1NC(=O)Cc1ccc(Cl)cc1
- Vaccinia Venus: ?
- Vaccinia mCherry: ?
[1] O=S(=O)([N-]c1nc2ccccc2nc1-n1cc[n+](Cc2ccccc2)c1)c1ccccc1
- Vaccinia Venus: -8%
- Vaccinia mCherry: i

(more compounds)
item	Structure	Vaccinia Venus	Vaccinia mCherry
91	O=C(CSc1nnc2ccc(-c3ccc(F)cc3)nn12)N1CCCC1	5%	0%
92	CS(=O)(=O)N1CCC(C(=O)Nc2ccc(Cl)c(Cl)c2)CC1	-7%	-15%
93	Nn1c(SCC(=O)N2CCOCC2)nnc1-c1ccco1	5%	-5%
94	O=C(CCN1CC2CCC(CC2)C1)c1cccs1	-7%	i
95	Cc1cc(=O)n2c3c(cccc13)CCC2	-3%	.
96	Cc1ccc(N(CC(=O)NCc2ccc(Cl)cc2)S(=O)(=O)N(C)C)cc1	-2%	1%
97	CCCC(=O)Nc1ccc(-c2nc3cc(C)c(C)cc3o2)c(O)c1	9%	.
98	Cc1ccc(NC(=O)COC(=O)C2CSC3(C)CCC(=O)N23)cc1S(=O)(=O)N1CCOCC1 (stereo not given)	-13%	-14%
99	O=C(NCc1ccccc1)c1cc(C2COCCN2C(=O)C/C=C/c2ccccc2)on1 (stereo not given)	-8%	-12%
100	CCC(=O)N(C)C[C@H]1Oc2cc(-c3ccccc3F)ccc2S(=O)(=O)N([C@H](C)CO)C[C@H]1C	-12%	i
101	Cc1ccc(NC(=O)CSc2nnc(-c3ccncc3)o2)cc1C	0%	5%
102	CCN(CC(=O)Nc1ccc(NC(C)=O)cc1)C(=O)CCN1C(=O)c2cccc([N+](=O)[O-])c2C1=O	-12%	0%
103	Cc1noc(C)c1-c1nc(CSc2ccccc2)no1	-11%	i
104	Cc1cc(C)cc(NC(=O)c2cc(S(=O)(=O)NCCC3=CCCCC3)ccc2F)c1	12%	-6%
105	COC(=O)c1cc(-c2ccccc2)n(CC(=O)O)c1C	10%	.
106	O=C(Nc1cccc(C(=O)N2CCN(c3cccc(Cl)c3)CC2)c1)c1nsc2ccccc12	-15%	-13%
107	Cc1ccc(S(=O)(=O)N(C)c2ccc(OCC(=O)Nc3ccc(S(C)(=O)=O)cc3)cc2)cc1	-26%	-10%
108	CCN1C(c2ccccc2)C(C)C(=O)C(C)C1c1ccccc1 (stereo not given)	0%	.
109	CCOc1ccccc1N(C)C(=O)NCc1noc2ccccc12	3%	0%
110	CC(C)N(CC#CCC1(O)c2ccccc2-c2ccccc21)CCO	-1%	-5%
111	O=C(N/N=C/c1cccnc1)c1ccc(NC(=O)c2ccccc2Cl)cc1	-11%	-13%
